Screens: PubChem, National Center for Advancing Translational Sciences (NCATS)
VDR inhibitor = blocks the human vitamin D receptor | P11473 | VDR-SRC2-3 peptide fluorescence polarization, 2 h | Potency, µM, for the others: max response, negative = inhibition, usual class: inhibitors | 0.93% of 400,000 active | AID 504847; active means well fitted inhibition curve with a large enough effect; inconclusive means small, poorly fitted or top-dose-only effect, or another doubt; inactive means no such curve, though single readings can be large or run the other way; further: series mostly up to about 120 µM
Target sequence (P11473 whole entry, looked up): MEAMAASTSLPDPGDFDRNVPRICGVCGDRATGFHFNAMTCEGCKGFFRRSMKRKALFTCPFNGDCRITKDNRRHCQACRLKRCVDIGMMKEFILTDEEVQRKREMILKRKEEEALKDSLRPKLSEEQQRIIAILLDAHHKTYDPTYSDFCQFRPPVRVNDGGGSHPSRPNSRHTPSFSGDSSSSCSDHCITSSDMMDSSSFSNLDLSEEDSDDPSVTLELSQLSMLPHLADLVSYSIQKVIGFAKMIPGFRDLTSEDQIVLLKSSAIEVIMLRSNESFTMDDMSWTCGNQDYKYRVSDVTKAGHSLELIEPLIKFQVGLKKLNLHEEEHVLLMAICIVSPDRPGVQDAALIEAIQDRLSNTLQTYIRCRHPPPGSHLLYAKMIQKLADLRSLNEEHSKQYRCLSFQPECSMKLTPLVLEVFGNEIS
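Two reagent solutions held at 4 deg C in the dark were dispensed, compounds pinned at 23 nl, and the mixture incubated 2 h at room temperature. Read-out: fluorescence polarization of VDR–SRC2-3 peptide binding.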
* = called active by the depositor; ? = inconclusive; & = joins results of further samples. On the % scale 0 is the no-effect control and ±100 the full control effect; potency means the concentration at half of the fitted maximal effect. Some of the compounds tested. The share of hits here may be higher or lower than overall.

molecule | VDR inhibitor
CNC(=O)c1c(C)noc1C | -20%
C=CCn1c(C(CCC(C)C)CC(C)(C)O)n[nH]c1=S (centres undefined) | 12%
COc1cc(-c2nnn(CC(=O)Nc3ccc(OC(F)(F)F)cc3)n2)cc(OC)c1OC | 1%
Cc1nc2oc(C(=O)c3ccc(Br)cc3)c(N)c2c2c1COC(C)(C)C2 | 17%
CCCCC(CCC(=O)Nc1ccn(-c2ccccc2)n1)C(=O)O (centres undefined) | -11%
CS(=O)(=O)N1CCCC(C(=O)NCCCN2CCc3ccccc3C2)C1 (centres undefined) | -12%
COC(=O)Nc1ccc(S(=O)(=O)N2CCC(C(=O)NCc3ccc4c(c3)OCO4)CC2)cc1 | 1%
O=C(c1cnc2cc(-c3ccccc3)nn2c1)c1cc([N+](=O)[O-])ccc1O | 6%
CN(C)CCNC(=O)C(=O)Nc1ccc2c(c1)N(S(=O)(=O)c1cccs1)CCC2 | -17%
CC(=O)Nc1ccc(S(=O)(=O)N2CCN=C2SCc2ccc(F)cc2)cc1 | 5%
C/C(CC1CC(C)(C)OC1=O)=N/Nc1nc(-c2ccccc2)cs1 (centres undefined) | -29%
CCOC(=O)[C@H]1[C@H]2COc3ccccc3[C@@H]2N2C(=O)[C@@H](CO)NC(=O)[C@@]12C | -10%

Other compounds follow.
molecule | VDR inhibitor
COc1ccc2[nH]c(C(=O)O)c(CCN3C(=O)c4ccc(C(=O)O)cc4C3=O)c2c1 | -18%
O=C1CCN(Cc2ccc([N+](=O)[O-])cc2)CCN1[C@H](CO)c1ccccc1 | -14%
COc1ccc(NC(=S)Nc2ccc(N(C)C(C)=O)cc2)cc1 | -4%
O=C(CCC(=O)N1CCN(c2ccc(F)cc2)CC1)N1CCN(c2ccc(F)cc2)CC1 | 5%
Cc1nn(C)c(C(=O)Nc2ccc(S(=O)(=O)NC34CC5CC(CC(C5)C3)C4)cc2)c1Br | -8%
Cc1cc(SCC(N)=O)nc(SCC(=O)c2ccccc2)n1 | 2%
COc1ccc(N2CCN(C(=S)Nc3cccc(C)c3)CC2)cc1 | -3%
Cc1ccc(NC(=O)COC(=O)CN2CSCC2=O)cc1C | -1%
O=C(N=c1ccn(-c2nc3ccccc3nc2NS(=O)(=O)c2ccccc2)cc1)c1ccccc1Cl | 1%
O=C(NCc1ccc2c(c1)CCN2C(=O)c1ccccc1)Nc1cc(F)ccc1F | -1%
COCCCNC(=O)CC1C[C@H](C(=O)N2CCOCC2)[C@@]2(C)c3[nH]c4ccccc4c3CCN2C1=O (some centres undefined) | -3%
Cc1nn2c(=O)cc(COC(=O)C(c3ccccc3)c3ccccc3)nc2s1 | 1%

Nothing new here: entries from further up.
molecule | VDR inhibitor
Cc1ccc(NC(=O)COC(=O)CN2CSCC2=O)cc1C | -1%
O=C(N=c1ccn(-c2nc3ccccc3nc2NS(=O)(=O)c2ccccc2)cc1)c1ccccc1Cl | 1%
O=C(NCc1ccc2c(c1)CCN2C(=O)c1ccccc1)Nc1cc(F)ccc1F | -1%
COCCCNC(=O)CC1C[C@H](C(=O)N2CCOCC2)[C@@]2(C)c3[nH]c4ccccc4c3CCN2C1=O (some centres undefined) | -3%
Cc1nn2c(=O)cc(COC(=O)C(c3ccccc3)c3ccccc3)nc2s1 | 1%

(further entries)
molecule | VDR inhibitor
Cc1ccc(NC(=O)/C(=C\c2cccc([N+](=O)[O-])c2)NC(=O)c2cccs2)cc1 | -13%
COc1ccc(NC(=O)NC[C@@H]2CC[C@@H](Cc3ccc(-c4ccccc4)cc3)O2)cc1 | -8%
Cc1ccccc1CSCCC(=O)NCCC1=CCCCC1 | -12%
CCOC(=O)c1c(C)[nH]c(C)c1S(=O)(=O)NCC(=O)NCc1ccccc1Cl | 23%
O=C1CC(N2CCN(Cc3ccc4c(c3)OCO4)CC2)C(=O)N1c1cccc(Cl)c1 (centres undefined) | 5%
COc1ccc(N2C(=O)c3ccccc3NC2c2ccc(OC)c(Cn3nnc4ccccc43)c2)cc1 (centres undefined) | 3%
CC(C)[C@@H](C(=O)N[C@@H](C(=O)O)c1ccccc1)N1C(=O)N2CCc3c([nH]c4ccccc34)[C@@]2(C)C1=O | -13%
Cc1ccc(CN2CCN(CCC(C)C)C(CCO)C2)s1 (centres undefined) | -24%
CCOc1ccccc1-n1c(COc2ccccc2)nnc1SCC(N)=O | 21%
c1ccc(COc2ccc(OCCCN3CCCC3)cc2)cc1 | -20%
Cc1ccccc1N1CCN(C2CCCN(C(=O)c3cnsn3)C2)CC1 (centres undefined) | -14%
CCN(CC)c1ccc(NC(=O)COc2ccc(C#N)cc2)cc1S(=O)(=O)Nc1ccc(OC)cc1 | -22%

The list goes on:
molecule | VDR inhibitor
CCOC(=O)c1sc(NC(=O)CCCCl)nc1C | -12%
Cc1cccc(NC(=O)c2ccc(NCCO)c([N+](=O)[O-])c2)n1 | -6%
O=C(CCl)Nc1cn(-c2ccccc2)nc1-c1ccc(F)cc1 | -8%
Cc1oncc1C(=O)Nc1cccc2ccccc12 | 19%
O=C(Nc1ccc(C(=O)O)cc1)/C(=C\C=C\c1ccccc1)NC(=O)c1cccc(Br)c1 | 3%
CN(C)S(=O)(=O)c1ccc(S(=O)(=O)N(CC(=O)Nc2ccccc2)CC2CCCO2)cc1 (centres undefined) | -9%
Cc1ccc(F)cc1NC(=O)Cn1c(C)cc(C)c(C#N)c1=O | -1%
COc1ccccc1NS(=O)(=O)c1cc(NC(=O)c2cnccn2)ccc1N1CCOCC1 | 1%
Cn1c(SCC(N)=O)nnc1C1CCN(C(=O)NCc2ccccc2)CC1 | -17%
CC1C(=O)N2CCCc3cc(S(=O)(=O)N4CCN(c5cccc(Cl)c5)CC4)cc1c32 (centres undefined) | -21%
CC(Oc1ccc2c(-c3ccccc3)cc(=O)oc2c1)C(=O)NCC1CCC(C(=O)O)CC1 (centres undefined) | -4%&1%
Cc1cc(C)nc(N/N=C/C=C/c2ccccc2)n1 | -18%

(further entries)
molecule | VDR inhibitor
COCCCNc1nc(N)c([N+](=O)[O-])c(NCC2CCCO2)n1 (centres undefined) | -3%
O=C(c1ccc(F)cc1)N1CCCC(c2nc(-c3ccncc3)no2)C1 (centres undefined) | 12%
COc1ccc(CCn2c(-c3cc([N+](=O)[O-])cc([N+](=O)[O-])c3)nc3nc4ccccc4nc32)cc1 | -23%
COCCNC(=S)NNc1ccc(Cl)c(C(=O)O)c1 | -15%
COc1ccc(OC)c(-c2nnc3n2N=C(c2ccc(OC)c(OC4CCOC4)c2)CS3)c1 (centres undefined) | -2%
O=C1c2ccccc2NC(c2cn[nH]c2-c2ccccc2)N1O (centres undefined) | -1%
CN(Cc1cccc2ncccc12)C(=O)CC1C(=O)NCCN1Cc1ccc(F)cc1 (centres undefined) | 16%
O=S(=O)(NCc1ccc2c(c1)OCO2)c1ccc2oc3ccccc3c2c1 | 10%
C/C=C/c1ccc(OCCOc2ccc(C=O)cc2)c(OC)c1 | -12%
CCOCc1nnc(NC(=O)c2c(OC)cccc2OC)s1 | -5%
CCCNC(=O)C(=O)NCC(c1ccc2c(c1)OCO2)N1CCOCC1 (centres undefined) | 10%
CCOC(=O)c1c(NCC2CCCO2)c2ccccc2[nH]c1=O (centres undefined) | -5%

Later entries.
molecule | VDR inhibitor
CC1=C(C(=O)Nc2ccc(C)cc2C)C(c2ccccc2)n2nc(SCC(=O)c3ccc(C)cc3)nc2N1 (centres undefined) | 11%
Cc1cc(N2CCOCC2)n2ncc(-c3ccccc3Cl)c2n1 | -3%
O=C(Cn1cnc2ccccc2c1=O)Nc1ccc(N2CCOCC2)cc1 | -10%
Cc1nn(CC(=O)NCCc2ccc(Cl)cc2Cl)c(C)c1[N+](=O)[O-] | -15%
O=C(O)C(c1ccccc1)C1(O)CCCC1 (centres undefined) | 10%
Cc1nn(C)cc1S(=O)(=O)Nc1ccccc1Br | -20%
Cc1c(C(=O)OCC[N+]2(C)CCCCC2)oc2ccccc12 | 0%
COc1ccccc1C1CC(=O)Nc2cc3c(cc21)OCCO3 (centres undefined) | 10%
O=C(c1ccccc1F)N1c2ncnn2C2(CCCCC2)[C@@H]2CCCC[C@@H]21 | 12%
COc1cc(OC)c(N(C)S(=O)(=O)c2cccc(C(=O)Nc3nnc(C4CC4)s3)c2)cc1Cl | -39%
N#CCNC1CC(=O)N(c2ccccc2)C1=O (centres undefined) | -6%
CCc1nnc(NC(=O)CS(=O)(=O)Cc2ccccc2)s1 | 10%

In the list so far, these contain a nitro group on carbon:
molecule | VDR inhibitor
O=C(c1cnc2cc(-c3ccccc3)nn2c1)c1cc([N+](=O)[O-])ccc1O | 6%
O=C1CCN(Cc2ccc([N+](=O)[O-])cc2)CCN1[C@H](CO)c1ccccc1 | -14%
Cc1ccc(NC(=O)/C(=C\c2cccc([N+](=O)[O-])c2)NC(=O)c2cccs2)cc1 | -13%
Cc1cccc(NC(=O)c2ccc(NCCO)c([N+](=O)[O-])c2)n1 | -6%
COCCCNc1nc(N)c([N+](=O)[O-])c(NCC2CCCO2)n1 (centres undefined) | -3%
COc1ccc(CCn2c(-c3cc([N+](=O)[O-])cc([N+](=O)[O-])c3)nc3nc4ccccc4nc32)cc1 | -23%
Cc1nn(CC(=O)NCCc2ccc(Cl)cc2Cl)c(C)c1[N+](=O)[O-] | -15%

New compounds follow
molecule | VDR inhibitor
Cc1cccc(C(C)(C)C)c1OCCCCN1CCCC1 | -2%
CC(C)(C)c1ccc(/C=N/NC(=S)NC2CCCCC2)cc1 | -8%
O=C(C1=C(O)C(=O)N(Cc2ccco2)C1c1ccccc1)c1cccs1 (centres undefined) | -5%
OCC(O)C(O)C(O)CO (centres undefined) | 3%&2%
Nc1ccc2c(c1)C(=O)N(c1cccc3ccccc13)C2=O | 18%
O=C(Cn1cncn1)N/N=C/c1cccnc1 | 6%
CC(=O)c1sc(NC(=O)c2cc(=O)c3ccccc3o2)nc1C | -17%
COc1ccc(S(=O)(=O)N(CCCN2CCOCC2)Cc2ccc(OC)c(OC)c2)cc1 | -12%
O=c1c2ccccc2nnn1Cc1ccccc1 | 5%
CCCNC(=O)C(Cc1ccc(F)cc1)NC(=O)c1ccccc1 (centres undefined) | -9%
COC(=O)C(NNc1ccccc1)(NC(=O)c1ccc(F)cc1)C(F)(F)F (centres undefined) | -22%
O=C(Cn1ncc2c3ccccc3n(Cc3ccccc3F)c2c1=O)NCc1ccccc1Cl | -5%

Other structures follow:
molecule | VDR inhibitor
CC1(C)Cc2ccccc2-c2nnc(-c3cccc(O)c3)n21 | 9%
CC[N+](C)(CC)CCC(c1ccccc1)C1CCCCC1 (centres undefined) | 25%
Cc1ccc(NS(=O)(=O)c2ccc(Cl)c(C(=O)Nc3cccc(C(=O)O)c3)c2)cc1 | -31%
CC(/C=C/c1cccs1)=C\C(=O)O | -19%
COc1ccc(C(CCN(Cc2ccc(OC)c(OC)c2)C(=O)CCl)c2ccccc2)cc1 (centres undefined) | ?
O=C(NCCCN1CCOCC1)c1ccc2c(=O)n(Cc3ccccc3)c(=S)[nH]c2c1 | 23%
CCCCn1c(CN2CCN(c3cccc(Cl)c3)CC2)nc2c1c(=O)[nH]c(=O)n2C | -1%
N/C(=N\S(=O)(=O)c1cccs1)c1ccccc1Cl | -5%
COc1cc(/C=N/NC(=O)CSc2nc3ccccc3n2C)cc(OC)c1OC | -6%
CC(/C=N/NC(=O)c1nnn(-c2nonc2N)c1C(C)C)=C\c1ccccc1 | 11%
Cc1ccc(C)c(NC(=O)CS(=O)(=O)c2cn(C)c3ccccc23)c1 | 1%
Cn1c(=O)n(CC(=O)OCc2ccccc2)c(=O)c2c1nc1n2CCCN1C1CCCCC1 | 7%

The listing continues.
molecule | VDR inhibitor
CN(CC(=O)NCCC1=CCCCC1)S(=O)(=O)c1ccc2c(c1)CCC(=O)N2 | -10%
O=C(CNC(=O)c1ccc(F)cc1)N/N=C/c1ccc(O)c([N+](=O)[O-])c1 | 5%
CCC(C(=O)O)c1ccccc1 (centres undefined) | 7%
Cc1ccc(-c2nc3ccccc3nc2-c2ccccc2)cc1 | 3%
O=C1CCCN1CCCNC(=S)Nc1ccccc1 | -14%
CC1(C)CC(=O)c2cnn(-c3nc4ccccc4[nH]3)c2C1 | -5%
COc1ccc(CN2CC[C@H]3C=CCc4cccc(c43)C2)cc1 | 1%
Cc1cccc(NC(=O)CNC(=O)COc2cc(F)ccc2[N+](=O)[O-])c1C | ?
C=CCC1(CC=C)CCCN1C(=O)CC1C(=O)NCCN1Cc1cccc(OC)c1 (centres undefined) | 2%
O=S(=O)(NC1CCCCC1N1CCCCC1)c1ccc(Cl)cc1 (centres undefined) | -1%
Cc1cn(S(=O)(=O)c2ccc(Br)cc2)cn1 | 21%
Fc1ccc(CNc2nc(-c3ccccc3)cc(C(F)(F)F)n2)cc1 | -3%

Other results:
molecule | VDR inhibitor
CC(C)c1nc(N2CCOCC2)c(C#N)c2c1CCC2 | -1%
Cc1cccc(NC(=O)CNC(=O)c2sc3ccccc3c2Cl)n1 | 6%
C=CCN1C(=O)CSc2ccc(C(=O)NCc3cccs3)cc21 | 1%
O=C(NCCCn1ccnc1)C(=O)NCC1OCCN1S(=O)(=O)c1ccc2c(c1)OCCO2 (centres undefined) | -21%
O=C(O)c1ccc(CSc2nnc(-c3ccccc3Br)o2)cc1 | -9%
COc1cc(OC)cc(C(=O)N[C@H](C(=O)OCC(=O)Nc2ccc(F)c(F)c2F)C(C)C)c1 | -5%
Cc1ccc(NS(=O)(=O)c2ccc3c(c2)CC(=O)N3)cc1C | -12%
Cc1ccc(C(C)C)c(OCC(=O)Nc2ccc(-c3nc4ncccc4o3)cc2C)c1 | -7%
O=C(O)CC(CC(=O)Nc1ccc(-c2ccccc2)cc1)c1ccccc1 (centres undefined) | -9%
O=C(Cc1cccs1)N/N=C/C=C\c1ccco1 | -26%
CCCc1cc(=O)[nH]c(SCC(=O)N2CCN(c3ccc(F)cc3)CC2)n1 | -12%
Cc1cc2n(n1)C(c1ccccc1)Nc1ccccc1-2 (centres undefined) | 4%
